High-throughput results as filed in PubChem.
Arbovirus inh: blocks arbovirus infection; arbovirus infection cell-based antiviral screen; inhibition, % at 10 µM; hit rate 0.37% among 200,000; AID 1251;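 active means inhibition from about 30%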;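 further: bluetongue infection of BSR cells; cell survival read as ATP light after 72 h; 0% = infected wells without compound and 100% = uninfected wells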
RecA splice inh: inhibitors of M. tuberculosis RecA intein splicing; P9WHJ3; cell-free RecA intein splicing, fluorescence; inhibition, %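 (about 9 µM by stock and volumes)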; hit rate 0.75% among 290,000; AID 2221; in the data active means inhibition above about 30%; inconclusive means no clear call, values can overlap the other calls;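 further: 0% = vehicle wells and 100% = reference inhibitor control wells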
Target sequence (P9WHJ3 whole entry, looked up, canonical isoform): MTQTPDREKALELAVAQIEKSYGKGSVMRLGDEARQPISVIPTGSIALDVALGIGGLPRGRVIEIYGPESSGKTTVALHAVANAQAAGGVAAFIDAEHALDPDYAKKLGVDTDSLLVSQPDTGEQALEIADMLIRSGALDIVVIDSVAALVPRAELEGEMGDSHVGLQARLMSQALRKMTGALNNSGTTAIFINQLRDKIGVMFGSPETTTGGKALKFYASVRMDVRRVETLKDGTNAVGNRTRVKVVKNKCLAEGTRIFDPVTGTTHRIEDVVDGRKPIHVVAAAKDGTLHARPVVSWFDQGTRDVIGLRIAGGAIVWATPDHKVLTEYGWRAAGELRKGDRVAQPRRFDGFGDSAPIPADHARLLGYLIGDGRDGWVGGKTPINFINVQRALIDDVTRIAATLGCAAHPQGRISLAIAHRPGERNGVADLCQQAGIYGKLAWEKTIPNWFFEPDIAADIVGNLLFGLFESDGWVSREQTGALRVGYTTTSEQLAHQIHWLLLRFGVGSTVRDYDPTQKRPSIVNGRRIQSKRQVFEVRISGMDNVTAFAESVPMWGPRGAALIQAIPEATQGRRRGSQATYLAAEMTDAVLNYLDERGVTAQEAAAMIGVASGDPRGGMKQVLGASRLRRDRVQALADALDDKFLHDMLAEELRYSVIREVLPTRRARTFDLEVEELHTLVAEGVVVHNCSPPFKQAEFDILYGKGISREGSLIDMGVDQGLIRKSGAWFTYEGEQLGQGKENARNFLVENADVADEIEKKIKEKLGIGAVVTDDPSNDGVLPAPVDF
Mtb H37Rv: M. tuberculosis H37Rv growth inhibitors, H37Rv strain (AID 1626). M. tuberculosis H37Rv growth inhibition; higher % means a stronger effect. one-dose inhibition, % at 10 µM; IC50 in µM for titrated hits. hit rate 0.95% among 220,000;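 active means confirmed in a dose series; inconclusive means inhibition above 80% but not taken into the dose series; inactive means below 80% or under 30% at every dose of the series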;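 further: bacteria incubated seven days before Alamar blue readout; 0% = bacteria only wells and 100% = bacteria with antibiotic wells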
YopH inh: inhibitors of Yersinia enterocolitica YopH tyrosine phosphatase | fluorescence Ex485/Em525 | hit rate 0.16% among 140,000 | AID 898 | inhibition, %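 (about 10 µM by stock and volumes)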;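 active means inhibition of 50% or more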;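 further: controls were vehicle for no effect and minimum signal wells for full effect; inactives centre near -20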
Mtb bLac sens: beta-lactam sensitization of Mtb H37Rv | AID 434955 | hit rate 0.27% among 330,000 | inhibition, % at 25 µM | M. tuberculosis H37Rv growth with meropenem, percent inhibition; hits of this screen are not shown here;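 active means about 74% or more and at least 40 points above the plate without the antibiotic, then above 30% in a dose series; inconclusive means first-round hits that could not be retested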;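 further: growth measured after seven days incubation then overnight dye step; 0% = bacteria only wells and 100% = bacteria with antibiotic; twin plates without the antibiotic show which effects depend on it; some results filed as inactive read as strong as hits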
Arbovirus inh repeat: recorded beside Arbovirus inh, whose call it bears; inhibition, %; measured here: 10K subset replicate screen; many hits read low in the repeat;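 first of two repeat runs on a subset; 0% = infected and 100% = uninfected wells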
* hit, by the source's call; ? = inconclusive; nt = no result given. Not all compounds are listed; rates above refer to the full screens.

SMILES | Arbovirus inh | RecA splice inh | Mtb H37Rv | YopH inh | Mtb bLac sens | others
CCC(C)NC(=O)c1ccccc1NC(=O)Nc1ccccc1 (configuration not stated) | 4 | 0.3 | -10% | 17 | 3
OCCn1c(CSc2nc3ccccc3n2CCO)nc2ccccc21 | 1 | 1.3 | -2% | 1 | 0
O=C(N1CCOCC1)N1CCCC(c2nc(-c3cccs3)no2)C1 (configuration not stated) | -3 | 1.7 | -4% | -11 | ?
Cc1cc(C)cc(C(=O)NCC(=O)N2CCC3(CC2)NCCc2[nH]cnc23)c1 | nt | -4.8 | nt | nt | -5
CCSc1nnc(COc2ccccc2)n1CC | nt | -0.9 | -10% | nt | -4
CCOc1ccccc1NC(=S)Nc1ccccc1F | 4 | -1.4 | -3% | -34 | -19
O=C(O)CNC(=O)C1CCCN1C(=O)CNC(=O)OCc1ccccc1 (configuration not stated) | nt | 1.3 | nt | nt | -3
COc1cc(C2C3C(C)N(C)C(=O)N(C)C3N(C)C(=O)N2C)ccc1O (configuration not stated) | -1 | -1.6 | 2% | -38 | 4
CCn1c(SCC(=O)c2ccccc2)nc2sc3c(c2c1=O)CCN(C)C3 | nt | 1.5 | 6% | nt | 60
O=C(CSCc1ccco1)NC1CCCC1 | 3 | -0.1 | -1% | -30 | 0
Cc1nc2ccc(S(=O)(=O)NCC(=O)NCCc3ccc(Cl)cc3)cc2s1 | nt | -0.6 | nt | nt | 3
CC(C)CNC(=O)COC(=O)c1ccccc1SCC(=O)NCC(C)C | 6 | -2.1 | -4% | nt | -14
O=C(CNC1CCCC1)Nc1ccc(S(=O)(=O)N2CCCCC2)cc1 | nt | -2.1 | nt | nt | 3
CCCN1CCC(=O)N([C@H](CN=[N+]=[N-])CC(C)C)CC1 | nt | -2.0 | nt | nt | -7
COc1ccccc1NS(=O)(=O)c1cccc(NC(=O)Nc2ccccc2)c1 | -21 | 1.0 | 3% | -33 | 5
N/C(=N\OC(=O)COc1ccc(Cl)cc1)c1cccnc1 | 4 | -12 | 15% | -21 | 4
COc1cc(NC(=O)C2CCCO2)c(OC)cc1Cl (configuration not stated) | 2 | 1.6 | 2% | -18 | -2
CCc1nc(SCc2ccc([N+](=O)[O-])cc2)n[nH]1 | 2 | -0.3 | 0% | -28 | 8
C=CCOc1ccc2c(c1)c(=O)cc(C(=O)O)n2CC | nt | 0.6 | -5% | nt | -5
O=C(Cc1n[nH]c(=O)c2ccccc12)Nc1cccc(S(=O)(=O)N2CCCC2)c1 | nt | 1.6 | 8% | nt | 7
CC1Cc2ccccc2N1S(=O)(=O)c1cccc(C(=O)N2CC(=O)Nc3ccccc32)c1 (configuration not stated) | nt | -1.7 | -3% | nt | 31
CCN(CC)CC(=O)NC1CCCc2c1cnn2-c1cc(F)cc(F)c1 (configuration not stated) | nt | -2.6 | nt | nt | -3
Cc1c(C2(O)C(=O)Nc3ccc(F)cc32)c(=O)n(-c2ccccc2)n1C (configuration not stated) | 6 | -0.5 | -6% | -28 | -4
CCNC(=S)NNC(=O)c1ccc(OC(F)F)cc1 | 6 | -0.8 | -4% | -15 | 0
CNNC(=O)C(=O)NNS(=O)(=O)c1ccccc1 | -6 | -6.0 | -6% | nt | 5
COc1ccc(/C=N/NC(=O)C(C)n2nnc3ccccc32)cc1OC (configuration not stated) | 0 | -0.6 | -3% | -5 | 53
CCOC(=O)c1sc(NC(=O)CC)c(C#N)c1C | 14 | -3.6 | 2% | nt | -7
O=C(CN1CCCCC1)Nc1ccccc1 | 7 | -1.9 | -7% | -21 | -7
Cc1nnc(SCc2ccccc2)n1CC1CCCO1 (configuration not stated) | 2 | -1.7 | 0% | 6 | -6
O=c1[nH]nc(C(F)(F)F)c2nnn(Cc3ccccc3Cl)c12 | nt | -0.5 | nt | nt | ?
CC1CCCCN1C(=O)c1ccc(Br)o1 (configuration not stated) | nt | 1.5 | nt | nt | -10
CC(C)(C)n1nc(-c2ccc(Cl)cc2)c2c(N)ncnc21 | -11 | -0.5 | 17% | -28 | 90
CCc1cc(=O)[nH]c(SCCCF)n1 | 1 | nt | 1% | nt | -5
C=CCOC(=O)c1sc(NC(=O)c2ccc(OC)cc2)nc1C | -30 | -0.3 | 0% | nt | -2
CC(=O)c1ccc(S(=O)(=O)N2CCN(C(=O)CSC(=S)N3CCCC3)CC2)cc1 | nt | -0.2 | nt | nt | -7
COc1cccc(C(=O)NCCS(=O)(=O)N(C)C2CCCCC2)c1 | nt | -1.2 | nt | nt | -14
COC(=O)[C@@H]1[C@@H](C)N(Cc2ccccc2)C(=O)N[C@H]1c1cccc(C(F)(F)F)c1 | nt | -1.8 | 10% | nt | 0
CCCc1cc(N2CCC(C(N)=O)CC2)nc(-c2ccccc2)n1 | 7 | -1.3 | -1% | nt | 2
Cc1ccc(C(=O)N2CCCCC2)cc1S(=O)(=O)N1CCCC1 | nt | -0.8 | nt | nt | -4
COc1ccc(NCc2n[nH]c(=O)c3ccccc23)cc1 | -6 | 1.3 | 53% | 2 | 75
C=CCOc1ccc(/C=N/NC(=O)CN2CCCCC2)cc1OC | nt | -2.9 | nt | nt | 0
CCOc1nc2cnccc2n(CC(=O)Nc2c(C)cccc2CC)c1=O | nt | 0.2 | nt | nt | -2
Cc1ccc(NC(=S)N(CCN(C)C)Cc2cccs2)c(C)c1 | -10 | -1.7 | 0% | nt | 11
Cc1ccc(C(=O)N2CCN(c3ccc(N4CCOCC4)nn3)CC2)cc1C | nt | -1.7 | nt | nt | -6
O=C1C2CC=CCC2C(=O)N1c1n[nH]c(-c2ccccc2)n1 (configuration not stated) | 10 | 0.2 | -19% | -7 | -4
CCOC(=O)Cc1csc(NC(=O)c2c(-c3c(F)cccc3Cl)noc2C)n1 | 10 | 1.0 | 5% | -13 | 30
CC(C)(C)c1cccc(P(=O)(c2ccccc2)c2ccccc2)c1O | nt | 2.3 | -8% | nt | 4
O=C(Cn1cc([N+](=O)[O-])cn1)N1N=C(C(F)F)CC1(O)C(F)F (configuration not stated) | 9 | 0.8 | -7% | -34 | -4
COc1ccc(-n2nnnc2S(=O)(=O)Cc2ccc(C(=O)O)cc2)cc1 | 9 | nt | -5% | 0 | 4
CNC(=S)Nc1cccc(-c2cnc3ccccc3n2)c1 | nt | -1.0 | nt | nt | -6
CCOC(=O)C1CCN(C(=O)CN2C(=O)c3ccccc3Sc3ncccc32)CC1 | nt | -1.2 | nt | nt | 3
C/C(=C\c1ccccc1)C(=O)NCCCn1ccnc1 | 8 | -1.2 | 4% | nt | 5
C/C(=N\NC(=O)CNC(=O)C1COc2ccccc2O1)c1ccco1 (configuration not stated) | nt | -2.0 | nt | nt | -6
CS(=O)(=O)N1N=C(c2cccs2)CC1c1ccco1 (configuration not stated) | -2 | -2.2 | 8% | nt | 2
Cc1ccccc1NC(=O)c1cc(S(=O)(=O)c2ccccc2)ccc1Cl | 0 | 2.8 | -2% | -20 | -7
CCN(CC)c1ccc(/C=N/OCC(=O)Nc2cccc(C)c2)cc1 | 2 | -0.5 | ? | -29 | 99
CCC(Sc1nnc2c3ccccc3n(CC)c2n1)C(=O)Nc1sc2c(c1C#N)CCCC2 (configuration not stated) | -18 | -0.9 | -2% | -26 | -1
COc1cc2c(cc1NC(=O)c1cccc(F)c1)CCCC2 | 1 | 5.0 | 4% | 2 | 2
CN(Cc1ccon1)C(=O)c1ccc2nc(Cc3cccc(Cl)c3)oc2c1 | nt | 1.6 | nt | nt | 0
CCCCSCCCNC(=O)CCCN1C(=O)c2ccccc2Sc2ncccc21 | nt | 1.2 | nt | nt | -1

The list continues:
SMILES | Arbovirus inh | RecA splice inh | Mtb H37Rv | YopH inh | Mtb bLac sens | others
COc1ccc(-c2cc(C)no2)cc1S(=O)(=O)NCC(C)c1ccccc1 (configuration not stated) | nt | -5.0 | nt | nt | -8
Cc1ccc(C(CC(N)=O)c2ccco2)cc1 (configuration not stated) | 6 | -0.1 | -9% | -9 | 0
NC(=O)COC(=O)CC(c1ccccc1)c1ccccc1 | 5 | -1.0 | -3% | nt | -6
CN(C)c1ccc(S(=O)(=O)NCC(=O)OCC(=O)Nc2cccc(Cl)c2)cc1[N+](=O)[O-] | 7 | 4.0 | -4% | -18 | 91
Nc1nc2sc3c(c2c(=O)s1)CCCC3 | -17 | 1.5 | -3% | -31 | 4
COc1cc(CN2CCCC(C(=O)c3ccc(SC)cc3)C2)cc(Cl)c1O (configuration not stated) | nt | 2.5 | nt | nt | 0
COc1ccc2c(C)cc(SCC(=O)NCCN3C(=O)CSC3=O)nc2c1 | 6 | 2.1 | -5% | -32 | -4
CCOC(=O)C1C(c2ccc(Cl)cc2)NC(=S)NC1(O)C(F)(F)F (configuration not stated) | 5 | -2.8 | -3% | nt | -4
COc1ccc(C(=O)NCCNC(=O)c2cnccn2)cc1 | nt | 0.6 | nt | nt | 1
Cc1ccc(S(=O)(=O)/N=C2/NC(=O)/C(=C/c3ccccc3)S2)cc1 | 2 | nt | -3% | nt | 2
N#Cc1ccc(CN2CCN(C(=O)c3ccccc3)CC2)c(Cl)c1 | 4 | 0.2 | -1% | -28 | 0
COc1ccc(S(=O)(=O)N2CCC(C(=O)NC(C)CCc3ccccc3)CC2)cc1 (configuration not stated) | nt | 0.7 | nt | nt | 0
Cc1cc(C)cc(N(CC(=O)NC(C)(C)C)C(=O)CCC(=O)Nc2ccccn2)c1 | nt | -1.0 | nt | nt | -13
O=C(O)CCSc1nnc(CNc2ccc(Cl)cc2)n1Cc1ccccc1 | 4 | 1.8 | -8% | -49 | -8
CCN1CCN(Cc2c(O)ccc3c2O/C(=C\c2ccccc2)C3=O)CC1 | 8 | -6.5 | 4% | nt | -4
CCCCn1c(=O)n(CC(=O)Nc2ccc(OC)c(Cl)c2)c(=O)c2c1nc(CO)n2CCC | 0 | 1.3 | 5% | -8 | -3
CC(=O)Nc1ccc(S(=O)(=O)NCCc2cc3c(C)ccc(C)c3[nH]c2=O)cc1 | 3 | 0.2 | 4% | -19 | 0 | Arbovirus inh repeat=-2
CCOC(=O)N1CCN(C2=CC(=O)OC23CCCCC3)CC1 | 3 | -0.8 | -1% | 1 | -5
Cc1ccsc1/C=N/NC(=O)c1ccc2ccccc2c1 | nt | -1.5 | nt | nt | -2
CCN(CC)S(=O)(=O)c1ccc2c(c1)nc(SCC(=O)NCC1CCCO1)n2CC (configuration not stated) | nt | -1.0 | nt | nt | 7
CN(C)c1ccc(CNc2nc(-c3ccccc3)nn2S(C)(=O)=O)cc1 | 10 | -2.8 | ? | nt | 100
Cc1ccc2nc(SCC(=O)NC3CC3)[nH]c2c1 | nt | -3.2 | nt | nt | 0
COCCC(=O)N1CCC(Oc2ccc(C(=O)N3CCCCCC3)cc2)CC1 | nt | -0.1 | nt | nt | 6
COc1cc(/C=C2\SC(=O)N(CCNC(=O)c3cnc(C)cn3)C2=O)cc(OC)c1OC | 3 | 4.3 | 0% | -6 | 4
COc1ccc(N(C(=O)Cc2cccs2)C(C(=O)NC2CCCC2)c2ccncc2)cc1 (configuration not stated) | nt | -4.8 | nt | nt | -9
O=C(Cc1noc2ccccc12)NNC(=S)Nc1ccccc1 | 5 | -3.0 | 0% | nt | 10
O=C(NCC1CCCO1)c1ccccc1-c1nc(-c2ccccc2F)no1 (configuration not stated) | nt | -0.9 | nt | nt | 1
Cc1ccc(NC(=O)/C=C2\NC(=O)CS2)cc1 | nt | 0.7 | nt | nt | 4
CCOC(=O)c1nn(-c2ccccc2)c(-c2ccccc2)c1C(=O)c1ccccc1 | -3 | -0.3 | -2% | -29 | -1
Cc1nn(-c2ccccc2)c(Cl)c1C(=O)NCC(C)c1ccccc1 (configuration not stated) | nt | 5.3 | nt | nt | -8
COc1cc(CCc2ccc3c(c2)OCO3)oc(=O)c1 | nt | -1.0 | -5% | nt | -14
O=C(CCCC(=O)N1CCN(c2ccccc2F)CC1)N1CCN(c2ccccc2F)CC1 | 3 | -1.2 | -5% | -35 | -11
Cc1cc(C)n(C(=O)c2cc(F)c(F)cc2C)n1 | 0 | nt | -9% | nt | 1
Cc1cccc(C)c1NS(=O)(=O)c1c(C)[nH]c(=O)[nH]c1=O | 3 | 1.9 | -10% | -7 | 7

Structures listed so far that contain a tert-butyl group (three):
SMILES | Arbovirus inh | RecA splice inh | Mtb H37Rv | YopH inh | Mtb bLac sens | others
CC(C)(C)n1nc(-c2ccc(Cl)cc2)c2c(N)ncnc21 | -11 | -0.5 | 17% | -28 | 90
CC(C)(C)c1cccc(P(=O)(c2ccccc2)c2ccccc2)c1O | nt | 2.3 | -8% | nt | 4
Cc1cc(C)cc(N(CC(=O)NC(C)(C)C)C(=O)CCC(=O)Nc2ccccn2)c1 | nt | -1.0 | nt | nt | -13
